# From PubChem
# Six1-Eya2 inh: Six1/Eya2 interaction inhibition; Q15475+O00167; AlphaScreen GST-Six1/His-Eya2 binding, biochemical; stronger effect = lower value; control for the full effect not named in the record; activity change, % (concentration not given with the values); actives 0.56% (n = 360,000); in the data active = activity change below about -65%; inconclusive = about -30% to -65%; inactive = above about -30%; further: on the % scale 0 is the no-effect control and ±100 the full control effect
#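 GST-Six1 + His-Eya2 (5X stock: 250/500 nM); Tris pH 8.0, 300 mM NaCl, 0.05% BSA, 0.02% Tween 20; GSH donor/Ni acceptor beads; 1 h 37 °C dark; AlphaScreen readout.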
# D2 ag: agonists of human D2 dopamine receptor (beta-arrestin). AID 624465. actives 0.084% (n = 360,000). P14416. activation, % (no concentration beside the values). DiscoveRx PathHunter D2 beta-arrestin, luminescence, 90 min; 100% = 57 uM dopamine signal; in the data active = activation above about 40%; inconclusive = about 15% to 40%; inactive = below about 15%; further: compound concentration not given in the record; the text of the record calls up to 30% inactive
# Target sequence (P14416 whole entry, looked up): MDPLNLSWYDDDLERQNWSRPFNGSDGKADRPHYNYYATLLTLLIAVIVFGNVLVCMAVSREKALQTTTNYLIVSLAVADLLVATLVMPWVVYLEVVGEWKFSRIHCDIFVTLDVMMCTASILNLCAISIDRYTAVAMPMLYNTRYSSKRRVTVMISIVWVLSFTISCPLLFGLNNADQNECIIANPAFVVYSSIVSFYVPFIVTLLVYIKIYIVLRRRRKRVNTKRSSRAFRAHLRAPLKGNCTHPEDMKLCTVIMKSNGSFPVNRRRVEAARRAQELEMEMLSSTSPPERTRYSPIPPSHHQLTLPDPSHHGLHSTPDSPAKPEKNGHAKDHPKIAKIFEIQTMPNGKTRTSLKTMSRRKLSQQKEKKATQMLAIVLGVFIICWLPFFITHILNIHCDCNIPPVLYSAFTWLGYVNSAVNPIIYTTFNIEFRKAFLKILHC
#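 DiscoveRx PathHunter D2 beta-arrestin cells (2,100/well) attached overnight, then compound-stimulated 90 min at 37 C in HBSS/10 mM HEPES/0.1% Tween-20 buffer; beta-galactosidase complementation read by luminescence after 1 h at ambient temperature. Dopamine 57 uM final (EC100) as control.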
# TRPML1 inh: blocks the human TRPML1 channel; Q9GZU1; TRPML1-inducible cells, Ca2+ dye fluorescence, FDSS; stronger effect = lower value; inhibition of EC80 agonist-evoked calcium signal; activity change, negative = inhibition, % (concentration not given with the values); actives 0.02% (n = 390,000); AID 624415; in the data active means activity change below about -50%; inconclusive means about -30% to -50%; inactive means above about -30%;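 further: stimulus is agonist 54-4 at its EC80 concentration; on the % scale 0 is the no-effect control and ±100 the full control effect; compound concentration not given in the record; the text of the record puts the active cut at -80%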
# Target sequence (Q9GZU1 whole entry, looked up): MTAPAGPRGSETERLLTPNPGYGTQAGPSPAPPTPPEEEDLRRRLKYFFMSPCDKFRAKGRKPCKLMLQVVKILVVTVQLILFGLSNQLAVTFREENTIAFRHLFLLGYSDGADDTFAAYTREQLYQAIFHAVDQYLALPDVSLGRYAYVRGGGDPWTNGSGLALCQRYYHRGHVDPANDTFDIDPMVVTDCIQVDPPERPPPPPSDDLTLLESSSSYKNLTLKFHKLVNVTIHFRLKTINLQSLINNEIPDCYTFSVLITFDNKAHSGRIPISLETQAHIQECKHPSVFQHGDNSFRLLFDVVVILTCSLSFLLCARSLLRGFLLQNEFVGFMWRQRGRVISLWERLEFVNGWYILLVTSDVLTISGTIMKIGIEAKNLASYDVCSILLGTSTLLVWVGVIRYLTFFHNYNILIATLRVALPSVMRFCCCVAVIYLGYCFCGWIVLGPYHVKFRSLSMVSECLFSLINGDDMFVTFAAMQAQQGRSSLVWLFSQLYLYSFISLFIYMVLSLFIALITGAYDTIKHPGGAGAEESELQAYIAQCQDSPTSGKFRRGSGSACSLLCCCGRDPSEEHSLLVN
#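 Tet-induced TRPML1-DL cells loaded with Ca8 no-wash calcium dye were read kinetically on FDSS. Compound addition was followed by EC80 agonist 54-4 (4 uM final); inhibition was read over 110 s.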
# PINK1 expr mod: changes PINK1 expression; PINK1 immunofluorescence, high-content cytometry, 24 h; Potency, µM (highest dose often 76.6 µM), for inactives: at the highest dose activation (PINK1 increase), usual class: activators; actives 0.2% (n = 410,000); AID 624263; active = well fitted activation curve with a large enough effect; inconclusive = small, poorly fitted or top-dose-only effect; inactive = flat fitted curve, though single readings scatter; cell line not stated here;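 further: potency means the concentration at half of the fitted maximal effect; % of control where 0% means no effect; nearly all actives have a fitted effect of over 65% in size; a mitochondrial uncoupler was the plate control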
#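 Decision-based qHTS: stable cells, 24 h exposure to five compound concentrations, CCCP as control. Fixed cells stained for PINK1 plus nuclear, mitochondrial and cell markers, cytometer read.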
# TRPML1 agonist: agonists of human TRPML1 channel. TRPML1-expressing cells, Ca2+ dye fluorescence, FDSS; host cell line not named in the record; reference of the full effect not given here. activation, % (concentration not given with the values). actives 0.12% (n = 410,000). Q9GZU1; in the data active = activation above about 50%; inconclusive = about 30% to 50%; inactive = below about 30%; further: 0% is about no effect; the text of the record puts the active cut at 80%
#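 Agonist activity was taken from a 110 s kinetic Ca2+ dye read on the FDSS after pinning compounds onto TRPML1-DL cells. The cells were seeded at 1,500/well with Tet inducer, incubated about 16 h, then dye-loaded at room temperature.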
# CtBP-E1A blk: CtBP/E1A binding inhibition | actives 0.49% (n = 340,000) | AlphaScreen GST-E1A/His-CtBP binding, 1536-well; stronger effect = lower value; control for the full effect not named in the record | AID 651724 | activity change, % (no concentration beside the values); in the data active means activity change below about -65%; inconclusive means about -30% to -65%; inactive means above about -30%; further: on the % scale 0 is the no-effect control and ±100 the full control effect; compound concentration not given in the record
#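 Homogeneous bead-based format: GST-tagged E1A captured on glutathione donor beads, His-tagged CtBP on nickel acceptor beads; compounds precede bead addition by 2 h at 37 °C.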
# Numbers without * were called inactive; ? = inconclusive; . = not tested or not shown; [ ] = dose if it differs, or a comment.
SMILES,Six1-Eya2 inh,D2 ag,TRPML1 inh,PINK1 expr mod,TRPML1 agonist,CtBP-E1A blk
Nc1c(N(Cc2ccco2)C(=O)COc2ccccc2F)c(=O)[nH]c(=O)n1Cc1ccccc1,8,-5.1,-12,-0.5%,0.6,.
COc1ccccc1N1CCN(CCCNC(=O)c2cnn(-c3ccc(C)c(C)c3)c2C2CCN(C(=O)OC(C)(C)C)CC2)CC1,.,.,1,1.7%,1.3,.
Cc1ccc(Cl)cc1N1CCN(C(=O)CCS(=O)(=O)c2cccc3nonc23)CC1,-19,-0.2,27,1.8%,0.0,6
O=C(CCC(=O)OCC(=O)c1ccc(Cl)cc1)NC1CCCCC1,13,-2.2,-19,-1.5%,-0.6,-2
Cc1nnc(SCCn2c(N3CCN(C)CC3)nc3c2c(=O)[nH]c(=O)n3C)s1,-2,0.2,6,5.3%[38.3 µM],-0.5,1
COc1cccc(NC(=O)c2ccc(Cn3cc([N+](=O)[O-])cn3)o2)c1,7,-5.2,1,4.0%,1.0,-1
CCOC(=O)c1cnc2c(C(=O)OC)cccc2c1NCc1cccnc1,2,-4.3,-6,0.7%,3.7,7
CC(=O)OC1CCC2(C)C(=CCC3C2CCC2(C)C3CC3ON=C(C)C32)C1 (stereo unspecified),1,-2.4,19,-1.1%,1.6,-1
COCCN(CC(=O)Nc1cccc(C)c1C)C(=O)c1cc(-c2ccncc2)nc2ccccc12,-7,4.1,11,4.8%,3.0,4
C[C@H]1Cn2cnc(C(=O)Nc3cccc(Cl)c3)c2C(=O)N1,-2,2.1,.,-0.5%,.,-11
O=C(CCSCCc1ccccn1)Nc1c(F)c(F)c(F)c(F)c1F,6,1.9,8,-1.2%,2.0,-2
COc1ccc(OCC(=O)N/N=C(\CCC(=O)O)c2cccs2)cc1,0,2.3,4,2.4%,-0.3,2
O=C(C1CCN(S(=O)(=O)c2cccc3cccnc23)CC1)N1CCCC1,0,-9.3,-4,0.3%,-0.1,3
Clc1ccc(OCCCCSc2ncccn2)cc1,49,-2.0,-3,-0.3%,2.0,43
CC(C)Nc1nc(N(c2ccccc2)c2ccccc2)nc(-n2ccnc2)n1,0,-1.4,0,2.6%,3.7,3
O=S(=O)(Nc1ccc(F)cc1)c1ccc(S(=O)(=O)N2CCOCC2)cc1,0,1.7,-4,3.3%,1.7,-4
CN(CC(=O)Nc1ccc(F)c(F)c1F)C(=O)c1n[nH]c(=O)c2ccccc12,2,-1.9,-5,-1.4%,-0.5,-2
c1ccc(C[C@H]2CN=C(Nc3ccccc3)N2CC2CCCCC2)cc1,6,-2.8,15,2.1%,1.0,0
CCOC(=O)c1c(NC(=O)CSc2nc(-c3ccccc3)cc(C(F)(F)F)n2)sc(C)c1C,.,.,9,1.1%,0.1,.
CCC1(CC)Cc2ccccc2-c2nc(CN3CCOCC3)[nH]c(=O)c21,-6,-3.0,-5,0.5%,-0.4,-3
CCOC(=O)N1CCN(S(=O)(=O)N2CCCC(C(=O)NC(C)c3ccccc3)C2)CC1 (stereo unspecified),3,0.0,29,2.0%,0.3,8
CCOC(=O)c1cccc(NC(=O)CCc2c(C)nc3cc(-c4ccc(Cl)cc4)nn3c2C)c1,.,.,-16,1.3%,-0.1,.
COC(=O)C1(C)NC(c2ccccc2OC)C2C(=O)N(c3ccccc3)C(=O)C21 (stereo unspecified),-11,-5.4,-14,-0.3%,-0.1,0
COC(=O)[C@]1(C)N[C@H](CN(C)C(=O)C2CCCCC2)[C@@H]2C(=O)N(Cc3ccccc3)C(=O)[C@@H]21,4,-0.9,-10,-0.3%,3.3,6
O=C1C=CN2CCOCC2C1 (stereo unspecified),2,0.1,43,-0.5%,-0.2,4
COc1ccc(-c2noc(CCC(=O)NCc3ccco3)n2)cc1,1,-1.5,-26,0.2%,1.0,.
C#CCO[C@@H]1C[C@H](n2cnc3c(=O)[nH]c(NC(=O)C(C)C)nc32)O[C@@H]1CO,2,-1.2,-2,1.7%,-0.1,-1
COc1ccccc1NC1=C(Cl)C(=O)N(C2CCCCC2)C1=O,-25,-0.8,-2,5.1%,0.7,21
COc1ccccc1NS(=O)(=O)c1cccc(NC(=O)c2nn(C)c(=O)c3ccccc23)c1,-9,1.7,23,2.9%,1.6,-25
Cc1ccc(C2=NOC(c3nnc(-c4ccccc4)o3)C2)cc1 (stereo unspecified),6,-1.0,-5,1.3%,-0.3,.
Cc1ccc(Sc2c(C)nn(C(=O)CNS(=O)(=O)c3ccc(F)cc3)c2C)cc1,4,-5.8,46,28%,0.2,2
CCCCC(=O)Nc1nnc(-c2ccco2)o1,-11,-3.9,-12,-0.9%,0.4,-19
CCNc1ccc2noc3c2c1C(=O)c1ccccc1-3,-74*,11,4,14%[38.3 µM],63*,-72*
Cc1ccc(C(OCC(C)(C)C[N+](C)(C)C)c2ccccc2)cc1 (stereo unspecified),-12,-2.2,-4,0.9%,-0.3,0
CCc1ccc(NC(=O)CC2C(=O)N(c3ccc(Cl)cc3)C(=O)N2C2CCCC2)cc1 (stereo unspecified),.,.,29,1.1%,2.0,.
COc1ccc(-c2cc(C(=O)NNC(=O)c3csc(N4CCOCC4)n3)c3ccccc3n2)cc1,-25,0.1,3,-1.2%,0.8,-28
O=S(=O)(c1ccc(Cl)s1)N1CCC2(CC1)OCCO2,7,-1.9,9,-0.4%,-0.2,8
CC(C)(C)c1cc(C(=O)N/N=C/c2ccc([N+](=O)[O-])s2)n[nH]1,1,14,17,-0.1%,2.7,-21
COCc1cc(/C=N\NC(=O)c2ccc(Cl)cc2)ccc1OC,2,-3.0,-6,-1.7%,-0.5,-2
CC(=O)c1cccc(NC(=S)NCc2ccco2)c1,-4,-4.9,3,0.7%,2.2,.
CCN(c1ccc(NC(=O)COC(=O)c2cccs2)cc1)C(C)C,-28,-2.4,-9,-0.7%,0.2,?
COc1ccc(OCCSc2nc(N)cc(=O)[nH]2)cc1,-2,7.5,-9,-2.2%,-0.3,.
CCc1ccc(-c2nc(CSCC(=O)NCc3ccccc3OC)c(C)o2)cc1,.,.,-9,-0.7%,1.1,.
CCOC(=O)N(C)OC(=O)Nc1ccc(Cl)c(Cl)c1,4,1.4,1,.,0.8,7
CCOC(=O)CSc1nnc(CSc2nc(N)c3c(C)c(C)sc3n2)n1-c1ccccc1,-7,-0.3,5,2.3%,0.2,4
C#Cc1ccc([C@@H]2C=C(C(=O)OCC=C)O[C@H](OCC)[C@H]2CCCO)cc1,6,3.2,32,1.4%,0.9,3
Cc1ccsc1CNC12CC3CC(CC(C3)C1)C2,2,-2.2,8,3.3%,-0.2,4
O=C(COC(=O)c1ccc(S(=O)(=O)NCc2ccco2)cc1)Nc1ccccc1,-1,-3.1,-3,-0.4%,1.2,2
Cc1cccc(Nc2nc3c(S(=O)(=O)c4ccccc4)nnn3c3ccccc23)c1,2,-1.8,9,14%,-0.4,-2
Cc1cccc(N=C2CCCC2C(=O)Nc2cccc(C)c2C)c1C (stereo unspecified),0,-1.7,-2,11%,-0.5,1
O=C(NCCCn1ccnc1)c1noc2c1CCc1ccccc1-2,-6,0.6,-4,3.7%[38.3 µM],0.0,-5
NC(=S)N/N=C1\CC(n2nnnc2-c2ccccc2)C2COC1O2 (stereo unspecified),0,0.6,7,0.0%,-0.1,1
CCN1C(C(=O)c2ccccc2)=C(NC(=O)c2ccc(Cl)cc2)c2ccccc2S1(=O)=O,.,.,2,-1.0%,9.3,.
COc1cccc(NS(=O)(=O)c2ccc3c(c2)CC(=O)N3)c1,-11,-1.1,-16,0.9%,1.3,-2
Cc1ccc(/C=N/n2c(C3CCCCC3)n[nH]c2=S)o1,2,-0.2,0,1.0%,-0.4,10
CCN(CC)S(=O)(=O)c1ccc2oc(C(=O)NCC3COc4ccccc4O3)c(C)c2c1 (stereo unspecified),-2,-0.7,29,0.3%,2.6,-5
CC(=O)Nc1ccc(NC(=O)CSc2nc(=O)n(Cc3ccncc3)c3c2CCC3)cc1,-4,-1.8,2,5.9%,-0.3,5
CC(=O)Nc1ccc(/C(C)=N/NC(=O)CN(c2ccccc2Br)S(C)(=O)=O)cc1,1,-1.2,-1,2.8%,0.6,2
COc1ccc(CNC(=O)CN(Cc2ccco2)C(=O)CNS(=O)(=O)c2ccc(C)cc2)cc1,1,-5.7,-2,-0.4%,3.3,-3
CSC(=CC(=O)c1ccccc1)SC,3,-0.7,-10,15%[38.3 µM],0.3,7

# The list goes on:
SMILES,Six1-Eya2 inh,D2 ag,TRPML1 inh,PINK1 expr mod,TRPML1 agonist,CtBP-E1A blk
CC1CN=C(N(C(=O)Nc2ccccc2)C(C)c2ccccc2)S1 (stereo unspecified),1,-1.8,8,-1.3%,1.8,.
COc1ccccc1/C=C/C(=O)OCC(=O)NC1CCS(=O)(=O)C1 (stereo unspecified),3,-0.2,-1,0.2%,-0.6,1
COc1cccc(OCC(O)CN2CCN(CCN3C(=O)c4cccc5cccc(c45)C3=O)CC2)c1 (stereo unspecified),-5,-3.2,-2,1.6%,0.4,-1
CCOc1ccccc1OCCOCCOc1c(Cl)cccc1Cl,99,-5.5,2,2.6%,3.0,109
O=C(Cn1nc(-c2ccccc2)ccc1=O)N1CCCCC1,10,2.5,10,-0.3%,-0.8,6
Cc1n[nH]c(=O)n(N=Cc2cccs2)c1=O,6,-11,5,0.1%,0.3,4
C=CC[C@H](CC(=O)OC(C)(C)C)C(=O)OC[C@@H]1CCCN1C(=O)[C@@H](CC=C)CC(=O)N[C@H](CO)Cc1ccccc1,-6,-6.3,7,0.0%,-0.5,3
CN1/C(=C\C(=O)COC(=O)c2ccc([N+](=O)[O-])o2)C(C)(C)c2ccccc21,-1,0.7,16,1.0%,-0.8,-2
CSCCC(NS(=O)(=O)c1ccc2[nH]c(=O)c(=O)[nH]c2c1)C(=O)O (stereo unspecified),1,-1.2,-12,-0.4%,-0.3,8
O=C(CCNS(=O)(=O)c1ccc2c(c1)CCN2C(=O)C1CC1)N1CCN(c2cccc(C(F)(F)F)c2)CC1,.,.,11,-5.1%,0.8,.
Cc1ccc(NC(=O)c2nc(S(=O)(=O)Cc3ccccc3)ncc2Cl)cc1,4,-6.8,8,-0.6%,0.5,2
COc1ccc(C(=O)NC(C)c2nnc(SCC(=O)NC3CCCC3)n2C)cc1 (stereo unspecified),8,-1.8,-2,2.8%,-0.3,1

# Record cards, as listed above. Values in the order: Six1-Eya2 inh	D2 ag	TRPML1 inh	PINK1 expr mod	TRPML1 agonist	CtBP-E1A blk
# O=C(CCNS(=O)(=O)c1ccc2c(c1)CCN2C(=O)C1CC1)N1CCN(c2cccc(C(F)(F)F)c2)CC1 in the list: .	.	11	-5.1%	0.8	.
# COc1ccccc1/C=C/C(=O)OCC(=O)NC1CCS(=O)(=O)C1 (stereo unspecified) in the list: 3	-0.2	-1	0.2%	-0.6	1
# Cc1n[nH]c(=O)n(N=Cc2cccs2)c1=O in the list: 6	-11	5	0.1%	0.3	4
# CCOc1ccccc1OCCOCCOc1c(Cl)cccc1Cl in the list: 99	-5.5	2	2.6%	3.0	109
# Cc1ccc(NC(=O)c2nc(S(=O)(=O)Cc3ccccc3)ncc2Cl)cc1 in the list: 4	-6.8	8	-0.6%	0.5	2

# An unsorted share of the library; 1% or so of the library scored in one or more.
